Assay outcomes (PubChem)
Polio RdRp inh = inhibitors of poliovirus RNA polymerase binding and polymerization | actives 0.66% (n = 150,000) | AID 588519 | poliovirus polymerase elongation, fluorescence polarization; active compounds read low | % elongation, % (compound at 16.7 µg/mL) | P03300; in the data active = % elongation below about 90%; also: some results filed as inactive read as strong as hits
Target sequence (P03300 1749-2209 limits assumed): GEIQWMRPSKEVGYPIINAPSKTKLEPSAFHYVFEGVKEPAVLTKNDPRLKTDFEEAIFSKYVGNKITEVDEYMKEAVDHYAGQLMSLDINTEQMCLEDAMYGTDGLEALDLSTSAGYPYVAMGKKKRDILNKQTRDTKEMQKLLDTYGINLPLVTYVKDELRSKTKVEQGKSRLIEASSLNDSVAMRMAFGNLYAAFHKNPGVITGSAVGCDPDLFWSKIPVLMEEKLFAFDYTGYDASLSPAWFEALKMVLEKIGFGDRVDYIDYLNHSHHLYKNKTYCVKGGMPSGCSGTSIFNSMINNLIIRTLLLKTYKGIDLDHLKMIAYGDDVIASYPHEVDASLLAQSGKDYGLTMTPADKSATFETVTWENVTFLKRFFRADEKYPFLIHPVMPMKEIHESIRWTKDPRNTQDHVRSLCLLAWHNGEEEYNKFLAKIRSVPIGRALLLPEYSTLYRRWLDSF
MbtI inh = MbtI salicylate synthase inhibition | purified MbtI enzyme, fluorescence intensity read-out | inhibition, %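 (about 17 µg/mL by stock and volumes)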 | actives 0.89% (n = 100,000);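 active = above 50% in both replicates, above 80% if mildly self-fluorescent; inactive = the rest, strongly fluorescent compounds included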;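 also: 0% = mean of negative and 100% = mean of positive controls; one replicate is shown; some compounds called inactive have numbers as strong as hits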
Target sequence (P9WFX0 whole entry, looked up): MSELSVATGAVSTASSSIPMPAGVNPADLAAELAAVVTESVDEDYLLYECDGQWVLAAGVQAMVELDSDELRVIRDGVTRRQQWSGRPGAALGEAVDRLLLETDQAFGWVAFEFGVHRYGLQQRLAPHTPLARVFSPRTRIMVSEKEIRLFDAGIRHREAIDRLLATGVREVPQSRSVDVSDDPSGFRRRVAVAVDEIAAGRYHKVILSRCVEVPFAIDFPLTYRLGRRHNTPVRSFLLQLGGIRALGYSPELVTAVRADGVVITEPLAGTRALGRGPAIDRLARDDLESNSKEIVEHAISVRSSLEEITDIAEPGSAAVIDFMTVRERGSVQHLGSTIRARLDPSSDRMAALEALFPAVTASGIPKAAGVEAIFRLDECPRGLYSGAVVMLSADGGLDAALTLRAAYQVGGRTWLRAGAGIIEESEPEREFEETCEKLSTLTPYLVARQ
Mtb MenB inh = inhibitors of Mycobacterium tuberculosis MenB enzyme; AID 540299; inhibition, %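 (about 12 µg/mL by stock and volumes)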; actives 0.43% (n = 100,000); MenB enzyme assay, absorbance read-out; some hits fall short of the stated cut; P9WNP5;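 active = mean of two replicates above 30%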;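 also: 0% = no compound and 100% = wells with inactive enzyme; the first replicate is given; strong numbers were not always called active; inactives centre near -10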
Polio RdRp inh intensity = second read-out of Polio RdRp inh, no call of its own (marks repeat the call); % elongation; measured here: total intensity read-out; formula for this scale not given here;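 total fluorescence in place of polarization; lower means less elongation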
Starred values were filed as active, the others as inactive; . = not tested or not shown; & = joins results of further samples; ! = repeats disagree.

Letters – A = Polio RdRp inh; B = Polio RdRp inh intensity; C = MbtI inh; D = Mtb MenB inh
CCCn1c(C(C)O)nc2ccccc21 (configuration not stated)
  A = 102; B = 101; C = 5; D = -18
CCOC(=O)c1cc2occc2n1CC(=O)N1CCCc2ccccc21
  A = 103; B = 105; C = 11; D = -67
CCOC(=O)c1cc(Cl)c(C(=O)OCC)cc1Cl
  A = 91; B = 99; C = -1; D = 1
CC1=CC(C)=NCCN1
  A = 101; B = 102; C = 21; D = 8
Cn1ccnc1C(=O)c1cc(-c2ccco2)nc2ccccc12
  A = 105; B = 99; C = 18; D = .
Cc1cccc(OCCNC(=O)c2sc3nc[nH]c(=O)c3c2C)c1
  A = 87; B = 101; C = 65; D = -9
CCC(C)(C)NS(=O)(=O)c1cccs1
  A = 101; B = 105; C = 2; D = 22
CCN(CC)S(=O)(=O)c1ccc2oc(C(=O)O)c(C)c2c1
  A = 99; B = 103; C = -3; D = 1
Cc1ccc(S(=O)(=O)c2nc(S(=O)(=O)c3ccccc3)sc2N2CCCC2)cc1
  A = 104; B = 103; C = -12; D = 4
CCC(C)c1ccc(NC(=O)CN(CC)Cc2nc3ccccc3c(=O)[nH]2)cc1 (configuration not stated)
  A = 97; B = 97; C = 5; D = 2
CC1C(=O)N2CCCc3cc(S(=O)(=O)N4CCc5ccccc54)cc1c32 (configuration not stated)
  A = 100; B = 104; C = 9; D = -19
CC1(C)OC(=O)C(=CNC(CCC(=O)O)C(=O)O)C(=O)O1 (configuration not stated)
  A = 102; B = 106; C = 4; D = -1
CCc1nnc(NC(=O)Nc2ccc3c(c2)N(C)C(=O)CS3)s1
  A = 103; B = 105; C = -1; D = -12
COc1cc(OC)c(OC)cc1CN1CCN(S(=O)(=O)c2ccc(NC(C)=O)cc2)CC1
  A = 105; B = 103; C = -14; D = -51
CCOC(=O)C1=C(O)/C(=C/c2ccco2)SC1=Nc1ccc(F)cc1
  A = 103; B = 103; C = 8; D = -24
O=C(/C=C/c1ccc(S(=O)(=O)N2CCOCC2)cc1)NC(=S)NC1CC1
  A = 100; B = 107; C = 9; D = -4
c1ccc([C@H]2CN3CCSC3=N2)cc1
  A = 101&101; B = 101&100; C = 2&-16; D = -8&-22
CC(C)NC(=O)C(C)Oc1ccccc1 (configuration not stated)
  A = 102; B = 103; C = -21; D = -10
O=C(O)c1cccc(-n2cccc2C=C2C(=O)c3ccccc3C2=O)c1
  A = 98; B = 95; C = 8; D = -44
O=C(O)C1CCCCC1C(=O)Nc1nncs1 (configuration not stated)
  A = 100; B = 103; C = -18; D = 1
Cc1ccc(C)c(Cn2c(=O)n(CCCC(=O)NCc3ccco3)c(=O)c3sccc32)c1
  A = 100; B = 101; C = -18; D = -7
COc1ccc2c(c1)s/c(=N\NC(=S)NC(=O)CN1C(=O)CCC1=O)n2C
  A = 104; B = 103; C = 2; D = -6
CC(OC(=O)C1CCCCC1)C(=O)Nc1ccc(Cl)cn1 (configuration not stated)
  A = 108; B = 121; C = 0; D = -14
Nc1ccccc1OC1CCCC1
  A = 98; B = 99; C = -2; D = -16
O=C(O)CN1C(c2ccccc2O)Nc2ccc(Br)cc2C1c1ccccc1 (configuration not stated)
  A = 104; B = 99; C = -4; D = -61
CCN(CC)S(=O)(=O)c1cccc(C(=O)OCC(=O)c2cc(C)n(C3CC3)c2C)c1
  A = 102; B = 103; C = -16; D = -20
COc1ccc(O)c(C(=O)c2cnn(-c3ccccc3)c2)c1
  A = 102; B = 103; C = 5; D = .
CC1CCCCC1NC1=NCCS1 (configuration not stated)
  A = 100; B = 98; C = -8; D = .
N/C(=N\c1nc2ccccc2o1)NC(=O)c1ccccc1NC(=O)c1ccccc1
  A = 99; B = 100; C = -4; D = -39
Nc1nc(CSCCO)nc(Nc2ccccc2)n1
  A = 101; B = 101; C = 4; D = 8
CC1CCN(S(=O)(=O)c2ccc(C(=O)NCCSCc3ccco3)cc2)CC1
  A = 104; B = 98; C = 10; D = -48
N#C/C(=C\Nc1ccccc1)c1ccccc1
  A = 103; B = 102; C = -10; D = -21
Cc1[nH]nc2c1C1(C(=O)N2)C(C#N)=C(N)Oc2ccc(Br)cc21 (configuration not stated)
  A = 100; B = 102; C = -4; D = -2
S=C(NCCc1ccccc1)NCCc1c[nH]c2ccccc12
  A = 100; B = 98; C = -4; D = -44
CCN=Cc1c(O)n(C)c(=O)n(C)c1=O
  A = 101; B = 103; C = 28; D = -53
CC(C)C1Cc2c(sc3[nH]c(=S)n(Cc4ccccc4)c(=O)c23)CO1 (configuration not stated)
  A = 101; B = 103; C = -5; D = -35
CCOC(=O)CC1NCCc2cc(OCC)c(OCC)cc21 (configuration not stated)
  A = 103; B = 105; C = -7; D = 3
CC12CC3CC(C)(C1)CC(NCc1cccnc1)(C3)C2
  A = 104; B = 101; C = -4; D = -48
Cc1nc(Cc2nnc(SCc3cn4cccc(C)c4n3)o2)cs1
  A = 100; B = 101; C = 1; D = 6
COc1cc(NC(=O)CN2C(=O)c3ccccc3C2=O)c(OC)cc1Cl
  A = 106; B = 101; C = -7; D = -4
Cc1nnc(SCC(=O)O)o1
  A = 101; B = 102; C = 2; D = 1
CCOC(=O)c1cc(NC(=O)CN2CCCC2)cc(C(=O)OCC)c1
  A = 102; B = 111; C = -3; D = -15
NCCC(=O)N1c2ccccc2Sc2ccccc21
  A = 100; B = 103; C = 9; D = 9
CCOC(=O)c1oc2ccc(CC/C(C)=N/NC(=O)c3ccoc3C)cc2c1C
  A = 103; B = 106; C = 8; D = -36
O=C(CSc1nc2ccccc2o1)N1CCc2c([nH]c3ccccc23)C1C(F)(F)F (configuration not stated)
  A = 103; B = 96; C = 8; D = 1
CN(C)C(=O)Oc1cccc2cccnc12
  A = 102; B = 99; C = 12; D = -34
CCC1CCCCN1C(=O)CC(=O)N1CCCCC1CC (configuration not stated)
  A = 102; B = 103; C = 2; D = .
CN1CCN(CC(=O)N(c2ccccc2)c2ccc(O)cc2)CC1
  A = 100; B = 102; C = -4; D = 1
O=C(Nc1ccc2c(c1)OCCCO2)C1CCCN(C(=O)c2ccc(Cl)cc2)C1 (configuration not stated)
  A = 105; B = 108; C = -11; D = -32
CN(C)C=Nc1nonc1-c1ccccc1
  A = 101; B = 89; C = -5; D = -14
CSc1nnc(CCNC(=O)Nc2ccccc2)n1C(C)C
  A = 107; B = 99; C = -6; D = -59
CNC(=O)c1cccc2cccc(Br)c12
  A = 105; B = 105; C = -3; D = -15
Cc1ccc(C(=O)NNc2nnc(C)c(=O)[nH]2)cc1
  A = 106; B = 103; C = -2; D = -17
O=C(O)CSc1nccn1Cc1ccccc1
  A = 98; B = 100; C = -7; D = -14
O=C(O)CSC1=NC2CCCCC2N1 (configuration not stated)
  A = 99; B = 104; C = 3; D = 33*
CCCCC(=O)Nc1ccc2oc(-c3ccc(OC)c(Cl)c3)nc2c1
  A = 103; B = 105; C = 15; D = 5
S=c1[nH]c(-c2ccccc2)cn1/N=C/c1ccc2c(c1)OCO2
  A = 104; B = 99; C = -1; D = -97
CC1CCN(S(=O)(=O)c2cc(S(=O)(=O)N3CCC(C)CC3)c3cccc4c3c2SC4=O)CC1
  A = 98; B = 105; C = 4; D = 7
CCNc1c(NS(=O)(=O)c2ccc(C3CCCCC3)cc2)c(=O)oc2ccccc12
  A = 105; B = 105; C = -3; D = -2
COc1ccc(CC(=O)Nc2sccc2C(N)=O)cc1
  A = 108; B = 109; C = -14; D = -10

More records:
Letters – A = Polio RdRp inh; B = Polio RdRp inh intensity; C = MbtI inh; D = Mtb MenB inh
CCc1ccc(OCC(=O)Nc2ncn[nH]2)cc1
  A = 99; B = 105; C = .; D = 5
Cc1nnc(Nc2ccc(C(=O)O)cc2)[nH]c1=O
  A = 102; B = 99; C = 25; D = 31
CCOC(=O)c1sc(-c2ccc3c(c2)OCCO3)cc1N
  A = 121; B = 143; C = 27; D = -47
CC1CCN(CCCNC(=O)c2cc3c(=O)n(C)c4ccccc4c3n2C)CC1
  A = 103; B = 100; C = 24; D = -8
CC(C)(C)NCC(O)c1cc(O)cc(O)c1 (configuration not stated)
  A = 100&100; B = 99&102; C = -5&-16; D = -7&4
Cc1cc(C)c(NC(=O)C(C)Sc2nnnn2-c2ccccc2)c(C)c1 (configuration not stated)
  A = 104; B = 103; C = .; D = -1
CC(=O)N1CCOc2ccc(S(=O)(=O)NCCc3ccccc3)cc21
  A = 103; B = 101; C = -15; D = -7
COc1ccc(N2CCN(C(=O)CCc3ccccc3OC)CC2)cc1
  A = 101; B = 107; C = -5; D = -22
CCOC(=O)c1nnc(Cc2ccc(F)cc2Cl)o1
  A = 104; B = 99; C = -7; D = -32
C=CCSc1nc2[nH]ncc2c(=O)[nH]1
  A = 101; B = 103; C = 11; D = 0
O=C(NC1C2CC3CC(C2)CC1C3)c1ccc2c(c1)OCO2 (configuration not stated)
  A = 99; B = 103; C = -10; D = -39
COc1ccc(C(=O)N2CCc3cc(OC)c(OC)cc3C2C)cc1 (configuration not stated)
  A = 104; B = 93; C = -10; D = -3
Clc1cn2ccsc2n1
  A = 102; B = 94; C = -5; D = -12
O=C(COc1ccccc1O)N1CCCC1
  A = 107; B = 110; C = .; D = -8
O=C(Nc1ccc(OCc2ccccc2)cc1)N1CCN(C(=O)C2COc3ccccc3O2)CC1 (configuration not stated)
  A = 104; B = 109; C = -15; D = -11
COc1ccccc1C1=NOC(C(=O)Nc2ccccc2C(F)(F)F)C1 (configuration not stated)
  A = 101; B = 104; C = 1; D = -13
O=S(=O)(Nc1nc(SCc2ccc(Cl)cc2)n[nH]1)c1cccs1
  A = 106; B = 108; C = 6; D = -24
COc1ccccc1N1C(=O)C2C(c3ccc(F)cc3)NC(Cc3ccccc3)(C(=O)O)C2C1=O (configuration not stated)
  A = 102; B = 95; C = -2; D = -18
O=C1CN(C2CCS(=O)(=O)C2)C(=S)N1c1ccccc1 (configuration not stated)
  A = 97; B = 96; C = 2; D = -18
COc1ccc(CCN(C)C(=O)Cn2nnc(-c3ccccc3Br)n2)cc1OC
  A = 104; B = 107; C = -4; D = -6
Cc1c(C(=O)N(C)c2ccccc2)sc2nc3n(c(=O)c12)CCCC3
  A = 101; B = 108; C = -1; D = -16
Cc1nonc1C(=O)N/N=C/c1ccccc1
  A = 101; B = 102; C = 17; D = 21
O=C(CNC(=O)c1cc(N2CCOCC2)ccn1)Nc1ccc(F)c(F)c1F
  A = 105; B = 108; C = -2; D = -17
N#Cc1cn(CC(=O)NCc2ccccc2)c2ccccc12
  A = 103; B = 103; C = -5; D = 2
O=C1C=CC(=O)c2c(O)cccc21
  A = 87*!; B = 87*!; C = -21&-19; D = 7&-2
CCCCn1nc(C(=O)Nc2ccccc2C(C)C)ccc1=O
  A = 99; B = 96; C = 8; D = 14
CC(C)(C)C(=O)/C(C#N)=C/c1cccs1
  A = 103; B = 101; C = -26; D = 4
C[N+]1(Cc2nc3ccccc3[nH]2)CCOCC1
  A = 103; B = 103; C = -5; D = .
Clc1nc(Cl)nc(NCc2ccccc2)n1
  A = 95; B = 98; C = 5; D = 12
COc1ccc(-c2nnc(SC3CCOC3=O)o2)cc1 (configuration not stated)
  A = 104; B = 104; C = -12; D = -12

Reformatted field by field: entries from further up.
compound: CCCCn1nc(C(=O)Nc2ccccc2C(C)C)ccc1=O
  Polio RdRp inh: 99
  Polio RdRp inh intensity: 96
  MbtI inh: 8
  Mtb MenB inh: 14

compound: O=C1CN(C2CCS(=O)(=O)C2)C(=S)N1c1ccccc1 (configuration not stated)
  Polio RdRp inh: 97
  Polio RdRp inh intensity: 96
  MbtI inh: 2
  Mtb MenB inh: -18

compound: Clc1nc(Cl)nc(NCc2ccccc2)n1
  Polio RdRp inh: 95
  Polio RdRp inh intensity: 98
  MbtI inh: 5
  Mtb MenB inh: 12

compound: O=C(CNC(=O)c1cc(N2CCOCC2)ccn1)Nc1ccc(F)c(F)c1F
  Polio RdRp inh: 105
  Polio RdRp inh intensity: 108
  MbtI inh: -2
  Mtb MenB inh: -17

(list continues)
Letters – A = Polio RdRp inh; B = Polio RdRp inh intensity; C = MbtI inh; D = Mtb MenB inh
O=S(=O)(c1ccc(C2CCCCC2)cc1)N1CCn2c(nc3ccccc32)C1
  A = 103; B = 95; C = 5; D = -16
O=C(CN(C(=O)c1csnn1)c1cccc(F)c1)NC1CCCC1
  A = 100; B = 105; C = -6; D = 1
Cc1cccc(-c2nc(CCNC(=O)c3cccs3)cs2)c1
  A = 104; B = 110; C = -9; D = -3
Cc1ccc(NC2SC(=O)NC2=O)c(C)c1 (configuration not stated)
  A = 100; B = 99; C = 10; D = -1
Cc1c(C(=O)OCc2cc(=O)n3ccsc3n2)sc2nc3n(c(=O)c12)CCC3
  A = 97; B = 117; C = 0; D = -20
CC(C)c1nnc(NC(=O)CC(NC(=O)c2ccccc2)c2ccccc2)s1 (configuration not stated)
  A = 100; B = 100; C = 10; D = -1
C=CCNc1ncnc2c1c(-c1ccccc1)cn2-c1cccc(C)c1
  A = 101; B = 106; C = 26; D = -11
CC(OC(=O)c1cccn1C)C(=O)Nc1ccc(S(=O)(=O)N2CCCC2)cc1 (configuration not stated)
  A = 99; B = 107; C = 4; D = -20
COc1cc(NS(=O)(=O)c2c(C)oc3c(F)c(F)c(F)c(F)c23)cc(OC)c1OC
  A = 105; B = 114; C = -14; D = 3
Cc1ccsc1-c1nc(CSCC(=O)NCc2cccnc2)c(C)o1
  A = 100; B = 104; C = 117; D = 1
COc1ccc(CCNC(=O)Cc2noc3ccccc23)c(OC)c1
  A = 101; B = 100; C = 1; D = -2
NC(=O)C12CC3CC(CC(C3)C1)C2
  A = 98; B = 106; C = -2; D = -26
